Source: PubChem BioAssay
Marburg entry inh = blocks Marburg virus binding to or entry into cells; Marburg virus pseudotyped entry inhibition, cell reporter; control for the full effect not named in the record; about a third of the inactives were read at about 46 µM; Potency, µM (series often up to 37.8 µM), without a hit: at the highest dose activity change, negative = inhibition, most hits filed as inhibitors; actives 1.8% (n = 300,000); AID 540276; active = well fitted inhibition curve with a large enough effect; inconclusive = small, poorly fitted or top-dose-only effect, or effect the other way; inactive = flat fitted curve, though single readings scatter; tested in HEK293 cells; about a fifth of its hits are not listed in these tables; further: on the % scale 0 is the no-effect control and ±100 the full control effect; luciferase read-out
StopGo reporter = lowers the luciferase signal of an FMDV 2A StopGo reporter; human cells with a luciferase reporter of 2A StopGo recoding; control for the full effect not named in the record; actives 1.2% (n = 410,000); Potency, µM (highest dose often 57.9 µM), for inactives: at the highest dose signal change, negative = less light; active = well fitted falling curve with a large enough effect; inconclusive = small, poorly fitted or top-dose-only effect; inactive = no such curve, though single readings can be large or run the other way; tested in HEK293T cells; further: on the % scale 0 is the no-effect control and ±100 the full control effect; nearly all actives have a fitted effect of over 45% in size; luciferase light after 4 h
NS1 function inh = inhibitors of influenza NS1 protein function | S. cerevisiae slowed by influenza A NS1, growth recovery by OD600 | Potency, µM (top dose mostly 46.1 µM), without a hit: at the top dose activity, positive = more growth | actives 0.4% (n = 270,000) | AID 2326; further: actives are rising curves; nearly all actives have a fitted effect of over 50% in size
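S. cerevisiae expressing influenza A NS1, grown in glucose, washed, then diluted 1:100 into pH 6.0 -URA galactose medium with 23 nl compound. Growth recovery read as OD600; NS1-free strain serves as control.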
RE007 growth inh = less growth of the S. pombe RE007 Vpr strain. S. pombe RE007 Vpr strain, BacTiter-Glo ATP luminescence, 24 h; control for the full effect not named in the record. Potency, µM (highest dose often 92.2 µM), without a hit: at the top dose activity change, negative = less growth. actives 0.21% (n = 360,000); active = well fitted falling curve with a large enough effect; inconclusive = small, poorly fitted or top-dose-only effect; inactive = no such curve, though single readings can be large or run the other way;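 further: on the % scale 0 is the no-effect control and ±100 the full control effect; nearly all actives have a fitted effect of over 50% in size; the assay follows cell death caused by Vpr and the record does not say whether a fall means rescue or toxicity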
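Fission yeast strain RE007, carrying one chromosomally integrated HIV-1 vpr copy, was seeded at OD 0.01 in PMG+AL medium with 23 nL pinned compound. After 24 h at 30 °C and 99% humidity, viability was read by BacTiter-Glo luminescence.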
Cruzain Triton = blocks cruzain activity in presence of Triton detergent; purified cruzain, Z-FR-AMC fluorescence, 0.01% Triton; Potency, µM, inactives show max response, negative = inhibition, hits mostly inhibitors; actives 0.43% (n = 200,000); AID 1478; active means well fitted curve in the direction sought with a large enough effect; inconclusive means small, poorly fitted or top-dose-only effect, or another doubt; inactive means no such curve, though single readings can be large; an effect the other way counts as inactive or inconclusive;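 further: plate controls were neutral wells for no effect and buffer without enzyme for full effect; nearly all actives have a fitted effect of over 40% in size; top concentration of the series not given in the record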
Target sequence (P25779 123-467 limits assumed): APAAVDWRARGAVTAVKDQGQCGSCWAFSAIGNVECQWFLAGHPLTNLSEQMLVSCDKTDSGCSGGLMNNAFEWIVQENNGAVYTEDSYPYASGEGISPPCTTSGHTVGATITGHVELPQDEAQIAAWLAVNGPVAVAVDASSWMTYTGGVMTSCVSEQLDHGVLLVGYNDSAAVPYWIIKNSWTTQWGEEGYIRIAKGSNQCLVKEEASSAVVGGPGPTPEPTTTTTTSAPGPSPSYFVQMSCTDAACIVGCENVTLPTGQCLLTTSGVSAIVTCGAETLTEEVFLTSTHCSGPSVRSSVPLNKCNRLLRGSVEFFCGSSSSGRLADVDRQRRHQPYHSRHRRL
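15 min RT preincubation of 1.5 nM cruzain with compound, then 2 uM Z-FR-AMC added; kinetic AMC fluorescence, 60 s delta. Triton X-100 0.01%, pH 5.5.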
Cruzain noTriton = cruzain (T. cruzi) inhibition without detergent; purified cruzain, Z-FR-AMC fluorescence, no detergent; Potency, µM, inactives show max response, negative = inhibition, usual class: inhibitors; actives 2.3% (n = 200,000); active means well fitted curve in the direction sought with a large enough effect; inconclusive means small, poorly fitted or top-dose-only effect, or another doubt; inactive means no such curve, though single readings can be large; an effect the other way counts as inactive or inconclusive;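 further: plate controls were enzyme without inhibitor for no effect and buffer without enzyme for full effect; nearly all actives have a fitted effect of over 40% in size; top concentration of the series not given in the record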
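Detergent-free condition (0.00005% Triton X-100) in acetate buffer pH 5.5 with DTT. 1.5 nM enzyme and compound were pre-mixed 15 min, then 2 uM Z-FR-AMC substrate added; reaction progress from fluorescence change between first and third reads (60 s).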
Lassa entry inh = inhibitors of Lassa virus binding or cell entry; Lassa virus pseudotype entry inhibition, cell reporter; control for the full effect not named in the record; Potency, µM (titrated, usually from 37.9 µM), for inactives: at the top dose activity change, negative = inhibition, hits mostly inhibitors; actives 1.2% (n = 300,000); AID 540256; active means well fitted inhibition curve with a large enough effect; inconclusive means small, poorly fitted or top-dose-only effect, or effect the other way; inactive means flat fitted curve, though single readings scatter; tested in HEK293 cells; further: on the % scale 0 is the no-effect control and ±100 the full control effect; nearly all actives have a fitted effect of over 50% in size; luciferase read-out
SARS PLP yeast = SARS-CoV PLP inhibition in yeast; Potency, µM (titrated, usually from 32.9 µM), without a hit: at the highest dose activity, positive = growth rescue; S. cerevisiae expressing SARS-CoV PLpro, growth rescue; control for the full effect not named in the record; AID 485353; actives 0.19% (n = 330,000); further: 0% is about no effect; nearly all actives have a fitted effect of over 55% in size; growth read by luminescence after 48 h
* = called active by the depositor; ? = inconclusive; · = no result given; & = joins results of further samples; [ ] = remark or other dose. Unless noted, the call rests on the fitted dose curve; in most records, active means well fitted rising curve with a large enough effect; inconclusive means small, poorly fitted or top-dose-only effect; inactive means no such curve, though single readings can be large or run the other way. Potency means the concentration at half of the fitted maximal effect. Rows are unselected. Share with any hit: about 4.7%.

SMILES	Marburg entry inh	StopGo reporter	NS1 function inh	RE007 growth inh	Cruzain Triton	Cruzain noTriton	Lassa entry inh	SARS PLP yeast
Cc1nc(SCCO)c([N+](=O)[O-])[nH]1	5%	-5%	6%	-3%	·	·	16%	1%
O=C(CN1CCOCC1)Nc1ccc([N+](=O)[O-])cc1Br	·	-14%	7%	10%	·	·	·	0%
CC(=O)c1ccc(NC(=O)CSc2nc(N)c3cc4c(nc3n2)CCCC4)cc1	-21%	-1%	?	-6%	-5.0%	-26%	-1%	-5%
O=C(O)c1cc(-c2ccc(/C=N/Nc3ccc([N+](=O)[O-])cn3)o2)ccc1Cl	?	-17%	·	34%	·	·	11%	-1%
CC1(C)CC2CC(C)(CN2C(=O)COC(=O)c2ccc(Cl)cc2N)C1 (stereo not given)	-7%	-23%	-5%	24%	-14%	-9%	?	0%
CCOC(=O)c1ccc[n+](CC(=O)c2ccc(OC)cc2)c1	-13%	-20%	11%	-6%	-3.7%	10%	-18%	4%
CN=C1CC(C)(C)CC(=O)/C1=C(/O)CCCN1C(=O)c2ccccc2C1=O	-1%[46.1 µM]	1%	·	-4%	·	·	31%	-1%
COc1cc(/C=C2\CCCc3c2nc2ccccc2c3C(=O)O)cc(Br)c1O	-3%[46.1 µM]	-1%	-19%	-2%	·	·	-2%[46.1 µM]	-1%
CN(C)CCNC(C(=O)Nc1cc(Cl)cc(Cl)c1)c1ccccc1 (stereo not given)	?	-6%	0%	-1%	·	·	?	-2%
CCOc1ccc(CNC(=O)c2nn(-c3ccc(OC)cc3)c(=O)c3c2c2ccccc2n3C)cc1	18%[46.1 µM]	-19%	·	·	-0.5%	3%	?	·
COc1ccc(CN2CCN(Cc3ccccc3C(F)(F)F)CC2)c(OC)c1	11µM*	-18%	-5%	-13%	·	·	?	-2%
C(=N\Nc1ncnc2sc3c(c12)CCC3)/c1cccs1	-7%	·	-47%	·	-7.2%	4%	·	-21%
O=C(Nc1cc(-c2ccccc2)[nH]n1)c1ccccc1F	?	33%[activator]	-50%	-21%	·	·	?	-8%
Cc1ccc(C2NC(=O)c3c(sc4c3CCN(C)C4)N2)s1 (stereo not given)	1%	·	24%	-4%	-7.2%	-11%	?	-6%
CC(=O)Nc1c2c(nn1-c1ccccc1)CS(=O)C2 (stereo not given)	·	-6%	6%	-7%	·	·	·	3%
COc1ccc(C(CNC(=O)c2ccc(S(=O)(=O)N3CCCC3)cc2)N2CCOCC2)cc1 (stereo not given)	0%	3%	7%	1%	·	·	·	2%
COc1ccc(NS(=O)(=O)c2ccc(N3CCCCS3(=O)=O)cc2)cc1Cl	·	-8%	·	·	-5.5%	-1%	?	·
NNc1nc2ccc(Cl)cc2s1	3%	29%	-2%	-7%	-2.7%	-2%	?	-34%
CCOc1ccc(NC(=O)CSc2nnc(CCNC(=O)c3ccc(OC)cc3)n2CC)cc1	20%	35%[activator]	0%	20%	-2.5%	4%	2%	-1%
Cc1nn(-c2ccc(N3CCOCC3)nn2)c(C)c1CCC(=O)NCc1ccc(Cl)cc1	·	7%	·	·	1.0%	0%	-1%[46.1 µM]	·
Cc1ccc2nc(C)cc(C(=O)OCC(=O)Nc3cccnc3Cl)c2c1	30%[46.1 µM]	-17%	·	18%	·	·	9%	-3%
O=C(NCC1CC1)Nc1ccc(Cl)cc1	·	64%[activator]	-3%	-9%	·	·	·	-4%
CC(C)NCCCCOc1ccc(Br)cc1Cl	·	-10%	-2%	-14%	·	·	·	0%
Fc1ccccc1C1=NC(c2ccc(C(F)(F)F)cc2)=Nc2ccccc2N1	7%[46.1 µM]	?	·	·	-11%	-26%	23%[46.1 µM]	·
CCOc1ccc(C(=O)NCC(=O)NCCOc2ccc(C)cc2)cc1	25%[46.1 µM]	8%	12%	13%	·	·	?	-5%

Later entries:
SMILES	Marburg entry inh	StopGo reporter	NS1 function inh	RE007 growth inh	Cruzain Triton	Cruzain noTriton	Lassa entry inh	SARS PLP yeast
CCSc1nnc2c(n1)OC(c1sccc1C)N(C(C)=O)c1ccccc1-2 (stereo not given)	0%[46.1 µM]	-16%	·	·	-9.1%	-3%	-14%[46.1 µM]	·
Cc1cccc(Cn2c(N3CCN(CCO)CC3)nc3c2c(=O)[nH]c(=O)n3C)c1	·	3%	-12%	5%	·	·	·	-3%
COc1cccc(C2c3[nH]c4ccccc4c3CCN2Cc2cnn(C)c2)c1 (stereo not given)	·	-19%	-5%	-6%	·	·	·	0%
O=C(O)c1cccc(N/N=C/c2cn(-c3ccccc3)nc2-c2cccs2)c1	-15%[46.1 µM]	-29%	·	?	·	·	·	-8%
COc1ccc(C)cc1NC(=O)CN1CCN(S(=O)(=O)c2ccc(C(C)C)cc2)CC1	-2%[46.1 µM]	-22%	-40%	30%	-1.6%	5%	?	2%
Cc1cc(Nc2c(C)n(C)n(-c3ccccc3)c2=O)n2c(nc3ccccc32)c1C#N	·	-4%	-6%	-4%	-1.0%	-8%	·	0%
CCOc1ccc(-n2c(SCC(=O)NC3CCS(=O)(=O)C3)nnc2-c2cccnc2)cc1 (stereo not given)	?	-10%	·	-14%	·	·	5%	2%
CCCN(CCC)CC(O)Cn1cc(/C=C/C(=O)c2cccs2)c2ccccc21 (stereo not given)	?	-11%	5%	1%	-9.2%	4%	?	-8%
O=c1cc(O)c2c(=O)n(-c3ccccc3)c3c(c2o1)CCCCC3	0%	-7%	11%	-6%	-7.2%	-6%	10%	?
Cc1ccc(CN2COc3ccc4c(C)cc(=O)oc4c3C2)cc1	·	-6%	·	·	?	?	18%[46.1 µM]	·
O=C(O)c1ccc(CNCc2cccc(Cl)c2Cl)cc1	?	1%	-12%	7%	5.5%	-3%	5%	4%
O=C(CN1CCN(Cc2ccccc2)CC1)N/N=C/C=C/c1ccccc1[N+](=O)[O-]	?	-15%	8%	-3%	-4.7%	3%	-4%&-10%	-6%
Nn1c(SCC(=O)NC(=O)NC2CCCC2)nnc1-c1ccccc1F	5%	-10%	12%	-6%	-0.2%	1%	-7%	-1%
CC(C)(C)OC(=O)N1CCC(c2c(C(=O)N3CCN(C(=O)c4ccco4)CC3)cnn2-c2ccc(F)cc2F)CC1	·	-21%&-9%	-5%	4%	0.4%	15%	16%[46.1 µM]	?
NS(=O)(=O)c1ccc(NC(=S)NC(=O)c2ccco2)cc1	25%&-17%	22%	4%&10%	-11%	-3.5%	5%	4%&12%	-3%&-10%
CC(Oc1ccccc1)C(=O)NC1=NCCS1 (stereo not given)	?	12%	-1%	0%	·	·	?	-1%
OCC[C@@H]1C[C@H](O)[C@@H](O)[C@@]2(CCCc3ccccc3O2)O1	·	8%	-12%	-10%	·	·	·	-4%
O=C(CSc1ncccn1)N/N=C/c1ccc2c(c1)OCO2	?	21%	7%	-1%	·	·	0%[46.1 µM]	-5%
O=C(NCCC(=O)N1CCC2(CC1)NCCc1[nH]cnc12)c1cccc(C(F)(F)F)c1	·	-10%	1%	2%	·	·	·	5%
CCCN(Cc1cccs1)C(=O)Nc1ccc(OCC)cc1	?	40%[activator]	·	·	-5.0%	-9%	3%[46.1 µM]	·
O=C(CSc1n[nH]c(=O)n1-c1cccnc1)Nc1ccccc1	·	-13%	10%	3%	·	·	·	10%
O=C(C1COc2ccccc2O1)N(Cc1cccnc1)c1nc2c(F)cc(F)cc2s1 (stereo not given)	·	-2%	·	·	-3.1%	-8%	10%[46.1 µM]	·
Cc1c(-c2nnnn2-c2ccc(F)cc2)cnc2cc3c(cc12)OCO3	14%	-22%	-6%	-8%	-1.6%	0%	6%	11%
O=[N+]([O-])c1ccc(N2CCN(S(=O)(=O)c3ccccc3)CC2)cc1NCC1CCCO1 (stereo not given)	12%	0%	14%	-6%	-4.2%	12%	-2%	-7%
CC(C)=NOC(=O)c1ccc(-c2ccccc2)cc1	7%	8%	-40%	-18%	-2.0%	10%	1%	-72%

(more compounds)
SMILES	Marburg entry inh	StopGo reporter	NS1 function inh	RE007 growth inh	Cruzain Triton	Cruzain noTriton	Lassa entry inh	SARS PLP yeast
Cc1cc(C)n(-c2nc3ccccc3c(=O)n2OC2CCCCC2)n1	-7%[46.1 µM]	-15%	-17%	4%	0.4%	6%	13%	-10%
Nc1ncnc(N2CCOCC2)c1N	2%	-17%	1%	7%	0.5%	-3%	6%	9%
COc1ccc(NC(=O)CN(C)S(=O)(=O)c2cnc[nH]2)cc1	-2%&-2%[46.1 µM]	-13%&-8%	-9%	13%	-1.6%	0%	?	-3%
CC(C)c1ccc(C(=O)OCC(=O)NC2CCCC2)cc1	·	5%	-5%	3%	·	·	·	-2%
Cc1nnsc1C(=O)N1CCC(C(=O)c2ccccc2)CC1	-14%	-17%	4%	-9%	·	·	23%	1%
Cc1ccc(C(=O)CSc2nc(-c3ccccc3)nc3c2CCCC3)c(C)c1	-3%[46.1 µM]	-23%	·	·	-0.5%	-1%	-16%[46.1 µM]	·
CCCC(=O)c1cc(-c2nc3ccccc3n2C)n(C)c1	10%[46.1 µM]	8%	-3%	24%	-3.1%	1%	2%	-7%
CC1CCN(CCCN2C(=O)C3C(C(=O)Nc4ccc(Cl)cc4)C4C=CC3(O4)C2C(=O)NC2CCCCC2)CC1 (stereo not given)	0%[46.1 µM]	-20%	-7%	-7%	·	·	16%[46.1 µM]	-5%
Cc1cc(C(=O)N/N=C/c2ccccn2)n[nH]1	·	62%[activator]	7%	-1%	·	·	·	0%
COc1ccccc1C(=O)Nc1nnc(S(=O)(=O)N2CCCCC2)s1	·	11%&51%	-36%	-7%	-1.6%	-6%	-15%[46.1 µM]	5%
COc1cc(C(=S)N2CCOCC2)cc(OC)c1OC(=O)Cc1ccccc1	22%[46.1 µM]	-5%	·	5%	·	·	-18%	0%
CCc1nccn1C(=O)c1cnn2c(C(F)F)cc(-c3ccccc3)nc12	0%	·	-4%	·	-13%	-3%	·	-6%
CCOC(=O)C1=C(C)Nc2sc(C(=O)c3ccc(F)cc3)c(N)c2C1c1ccc(C(=O)OC)cc1 (stereo not given)	?	-11%	?	1%	-2.4%	?	?	14%
Cc1ccc(N(CC(O)Cn2c3ccccc3c3ccccc32)S(C)(=O)=O)c(C)c1 (stereo not given)	16µM*	?	1%	-7%	-6.8%	?	1%	-20%
